Screening results deposited in PubChem by Southern Research Institute.
Mtb H37Rv – Mycobacterium tuberculosis H37Rv growth inhibition, cell based, confirmatory dose response (AID 1949); M. tuberculosis H37Rv growth inhibition; most inactive calls were filed without a number and no value below 0 was filed; one-dose inhibition, % at 10 µg/mL; IC50 in µg/mL for titrated hits; 1.6% of 100,000 active;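 active = confirmed in a dose series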;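 also: bacteria grown 7 days with compound before Alamar blue readout; 0% = untreated bacteria and 100% = reference antibiotic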
The depositor's hits bear a star; i = inactive. Not all compounds are listed (hit frequency here may not be typical).

Start of the data: the first 6 entries, to show the layout:
SMILES	Mtb H37Rv
COc1ccc(OCCn2c(C3CC(=O)N(c4cccc(C(F)(F)F)c4)C3)nc3ccccc32)cc1 (stereo not drawn)	i
CCOC(=O)c1c(NC(=O)c2cc(OC)c(OC)c(OC)c2)sc(C(=O)NC2CCCC2)c1C	i
CCOC(=O)c1c(-c2ccc(C)c(C)c2)csc1NC(=O)c1ccco1	i
O=C(O)c1ccc(N2CCCCCC2)c([N+](=O)[O-])c1	i
CCOC(=O)c1cc(-c2ccccc2)sc1NC(=S)Nc1ccc2c(c1)OCCO2	i
COc1cc(-c2n[nH]c(=S)n2Cc2ccco2)cc(OC)c1OC	i

Results, from the first entry:
SMILES	Mtb H37Rv
COc1ccc(OCCn2c(C3CC(=O)N(c4cccc(C(F)(F)F)c4)C3)nc3ccccc32)cc1 (stereo not drawn)	i
CCOC(=O)c1c(NC(=O)c2cc(OC)c(OC)c(OC)c2)sc(C(=O)NC2CCCC2)c1C	i
CCOC(=O)c1c(-c2ccc(C)c(C)c2)csc1NC(=O)c1ccco1	i
O=C(O)c1ccc(N2CCCCCC2)c([N+](=O)[O-])c1	i
CCOC(=O)c1cc(-c2ccccc2)sc1NC(=S)Nc1ccc2c(c1)OCCO2	i
COc1cc(-c2n[nH]c(=S)n2Cc2ccco2)cc(OC)c1OC	i
COc1cccc(NC(=O)CSc2nc3ccccc3c(=O)n2CC2COc3ccccc3O2)c1 (stereo not drawn)	i
COc1ccc(-c2nc3c4c5c(sc4ncn3n2)C(C)(C)NC(C)(C)C5)cc1	i
O=C(NC(=S)Nc1ccccc1Br)c1ccc(-c2ccccc2)cc1	i
O=C(Nc1cccc(-c2nc3ccccc3o2)c1)c1cccnc1	4.5%
CCn1c(C(O)c2cccc(OC)c2OC)nc2ccccc21 (stereo not drawn)	i
C=CCn1c(SCC(=O)c2ccc(F)cc2)nnc1-c1ccncc1	i
CCCc1cc(=O)oc2c(C)c(OC(C)=O)ccc12	i
CC(Oc1ccccc1)C(=O)Nc1ccc2[nH]c(=O)[nH]c2c1 (stereo not drawn)	i
Cc1cccc(CSCCNS(=O)(=O)c2cc(Cl)ccc2Cl)c1	3.8%
CC1CCN(c2ccc(NC(=O)c3ccco3)cc2)CC1	3.8%
COc1cc(C(=O)Oc2ccc3oc(-c4cc(OC)c(OC)c(OC)c4)cc(=O)c3c2)cc(OC)c1OC	i
OCCCCNCc1c(F)cccc1Cl	i
CCn1c(SCC(=O)Nc2cc(Cl)cc(Cl)c2)nnc1C(C)NC(=O)c1ccccc1 (stereo not drawn)	i
O=C(CN1CCN(S(=O)(=O)c2ccc(Cl)cc2)CC1)Nc1ccc(F)cc1	0.8%
COc1ccc(/C(N)=N/OC(=O)Cc2cccs2)cc1	i
Cc1ccc2oc(=O)n(CCCOc3ccc(Cl)cc3)c2c1	2.98µg/mL*
Cc1ccccc1NC(=O)C(=O)NCc1ccc2c(c1)OCO2	0.6%
CC(C)Cn1c(=O)c2cc3c(=O)n(CC(C)C)c(=O)c3cc2c1=O	i
Cc1ccc(S(=O)(=O)N(CC(=O)O)c2ccccc2F)cc1	i
CN(CC(=O)Nc1ccc(Br)cc1)Cc1ccccc1	i
Cc1ccc(C(=O)Nc2ccc(C(=O)NCCCC(=O)O)cc2)o1	4.2%
O=C(O)c1cccc(S(=O)(=O)Nc2ccc(O)cc2Sc2nc3ccccc3s2)c1	i
O=C(c1cn(CC(=O)N2CCCc3ccccc32)c2ccccc12)C1CC1	2.2%
CCC(=O)NC(=S)Nc1ccc2oc(-c3ccncc3)nc2c1	13.4%
CCn1c(SCC(=O)N2CCCc3ccccc32)nnc1-c1cccs1	i
CC(C)(C)c1ccc(C(=O)Nc2ccc(I)c(C(=O)O)c2)cc1	i
O=C(Nc1ccccc1OC(F)F)c1ccc(OCc2ccccc2)cc1	i
CCSc1ccccc1C(=O)N1CCCc2ccccc21	1.1%
CC(=O)N(Cc1cc2cccc(C)c2[nH]c1=O)CC(C)C	i
CCN1C(=O)C(NC(C)=O)c2cc(F)ccc21 (stereo not drawn)	i
C=CCNC(=O)c1ccccc1NC(=O)CSc1ccc(Cl)cc1	0.7%
O=C(Nc1ccc2c(c1)ncn2C1CCCCC1)c1ccco1	i
COc1ccc(C)cc1N1C(=O)CC(N2CCc3ccccc3C2)C1=O (stereo not drawn)	i
Cc1ccc(C(=O)CCC(=O)Nc2cccnc2)cc1C	i
CS(=O)(=O)N(CC(=O)NCCC1=CCCCC1)c1cc(C(F)(F)F)ccc1Cl	i
CCOc1ccc2ccccc2c1C(=O)NN1CCOCC1	i
COc1cc(OC)c(OC)cc1/C=N/N1CCN(C(c2ccccc2)c2ccccc2)CC1	i
O=C(Nc1ccc([N+](=O)[O-])cc1)N1CCN(c2ccccn2)CC1	i
O=C(Cn1c(C(O)c2ccccc2)nc2ccccc21)N1CCCCC1 (stereo not drawn)	i
COc1ccc(C2CC(c3ccc(OC)cc3OC(C)=O)=NN2C(=O)c2ccccc2)cc1 (stereo not drawn)	i
COc1ccc(C(=O)c2sc(Nc3ccccc3F)nc2N)cc1	16.3%
Cc1nn2c(-c3ccc(NC(=O)c4ccc(Cl)cc4)cc3)nnc2c2ccccc12	i
CN(C)c1nc(NC(C)(C)C)nc(NC(C)(C)C)n1	1.9%
COc1cc(C(=S)N2CCCCC2)ccc1OC(=O)c1cccc(C)c1	i
CCC(=O)Nc1cccc(C(=O)OCc2cccc(C(=O)OC)c2)c1	i
O=C(OCc1ccc2c(c1)OCO2)c1ccc2c(c1)OCO2	i
COc1ccc(NS(=O)(=O)c2ccc(NC(=O)COc3ccccc3Cl)cc2)cc1	i
Cc1ccc(NC(=O)CSC2=C(C#N)C(c3ccco3)C3=C(CC(C)(C)CC3=O)N2)cc1 (stereo not drawn)	11.8%
CSc1ccccc1NC(=O)C1CCN(S(C)(=O)=O)CC1	i
Cc1ccc(NC(=S)NC(=O)c2ccc(-c3ccccc3)cc2)c(O)c1	32.5%
CCOc1ccccc1N(CC(=O)Nc1ccccc1C(C)C)S(=O)(=O)c1ccc(C)cc1	14.4%
CCOC(=O)C1=C(C)NC(=S)NC1c1cc(C)sc1C (stereo not drawn)	i
O=C(c1cc(Br)ccc1Cl)N1CCc2ccccc2C1	2.9%
CCOC(=O)c1ccc(NC(=S)Nc2ccc(Cl)cn2)cc1	i

(listing goes on)
SMILES	Mtb H37Rv
CCCn1c(CCc2ccccc2)nnc1SCC(=O)Nc1ccc(OCC)cc1	2.4%
CSc1cccc(NC(=O)CSc2nnc(CNC(=O)c3ccccc3F)n2-c2ccccc2)c1	i
CC(C)Oc1ccc(OCCN2CCCCCC2)cc1	i
O=C(C1CC(c2ccc(Cl)c(Cl)c2)=NO1)N1CCCC1 (stereo not drawn)	i
Cc1ccc(NC(=O)CSc2nnc(-c3ccccc3)n2C)c(Br)c1	i
O=C(COc1ccc(Br)cc1)Nc1ncn[nH]1	5.1%
Cc1ccc(/C=C(/C#N)C(N)=S)cc1	i
Cc1ccc2nc(-c3ccc(NC(=O)C4COc5ccccc5O4)cc3)sc2c1 (stereo not drawn)	i
O=C(Cc1ccccc1[N+](=O)[O-])Nc1nnc(C(F)(F)F)s1	1.6%
COC(=O)c1cc(-c2ccccc2)sc1NC(=S)NNC(=O)c1ccco1	i
COc1ccc(NC(=S)Nc2ccccc2C)c(OC)c1	i
Cc1cc(-c2ccc(NS(C)(=O)=O)c(C)c2)ccc1NS(C)(=O)=O	i
NC1=NC(=O)CC(C(=O)Nc2ccc(Cl)cc2Cl)S1 (stereo not drawn)	i
CCc1cccc(C)c1NC(=O)CN(c1cccc(C(F)(F)F)c1)S(=O)(=O)c1ccc(C)cc1	i
CCOc1ccc(S(=O)(=O)Nc2cc(OC)ccc2OC)cc1	i
CCCC(=O)Nc1ccc(Cl)c(NC(=O)c2ccc(OCc3ccccc3)cc2)c1	i
COc1ccc(OC)c(NS(=O)(=O)c2ccc(OC)c(Cl)c2)c1	i
O=c1[nH]c(-c2ccc(Cl)cc2)nc2c1cnn2-c1ccccc1	i
CCCOc1ccc(-c2c(C)n([O-])c(C)c(-c3ccccc3)[n+]2=O)cc1	i
Cc1cc(C)c(C2C(C#N)=C(N)Oc3n[nH]c(C)c32)c(C)c1 (stereo not drawn)	i
CCCn1c(SCC(=O)Nc2ccc(Cl)c(C(F)(F)F)c2)nnc1-c1ccccc1	i
CCOc1ccc(CC(=O)Nc2ccc(C)cc2)cc1OCC	2.5%
O=C(NC(=S)Nc1ccc(C(=O)O)c(Cl)c1)c1ccc(-c2ccc(Cl)cc2)o1	i
Cc1ccc(C(=O)COc2ccc3c(C)cc(=O)oc3c2C)cc1	i
O=C(Nc1ccc(Cl)cc1)C1C2CCC3C(CCC21)C3(Cl)Cl (stereo not drawn)	i
Cc1ccc(CN(c2ccc(C(=O)N3CCN(Cc4ccccc4)CC3)cc2)S(C)(=O)=O)cc1	i
O=C(NCCOc1ccccc1Cc1ccccc1)c1cccnc1	i
O=C1NC(=O)C(CCc2ccncc2)(CCc2ccncc2)C(=O)N1Cc1ccc(F)cc1	i
COc1ccccc1OCC(=O)Nc1ccc(Cc2ccc(NC(=O)COc3ccccc3OC)cc2)cc1	0.9%
C=C(C)COc1c(I)cc(C=O)cc1OC	i
CC(C)(C)C(=O)N1CCN(c2ccc([N+](=O)[O-])c(N3CCCCC3)c2)CC1	4.2%
Cc1onc(-c2ccccc2Cl)c1C(=O)Nc1ccc(S(=O)(=O)N2CCC(C)CC2)cc1	i
N/C(=N\OC(=O)Cc1ccccc1)c1ccccc1Cl	i
COc1ccccc1N1CCN(C2CCN(Cc3cccc(Br)c3)CC2)CC1	i
Cc1ccc2nc(-c3ccccc3)cc(C(=O)N3CCOCC3)c2c1	i
COc1ccc(Cc2nnc(NC(=O)c3ccc4c(c3)OCO4)s2)cc1OC	8.3%
COc1ccc(CN2CCC(N3CCN(c4ccccc4OC)CC3)CC2)cc1OC	i
COc1ccc(CNCCC(c2ccc(OC)cc2)c2ccccc2OC)cc1 (stereo not drawn)	8µg/mL*
O=Cc1cc(Br)c(Sc2ncccn2)o1	1.7%
COc1ccc(C2CC(=O)C3=C(C2)Nc2ccccc2N(C(=O)c2ccccc2)C3c2cccc([N+](=O)[O-])c2)cc1 (stereo not drawn)	2.1%
Cn1nnnc1SCCNCc1ccc(-c2ccc(Cl)cc2Cl)o1	21.8%
C=CCN1C(=S)N(c2ccc(F)cc2)C(=O)C1CC(=O)Nc1ccc(F)cc1 (stereo not drawn)	i
Cc1cccc(OCc2nnc(SCC(=O)Nc3c(F)cc(F)cc3Br)n2C)c1	i
Cc1ccc(CC(=O)Nc2ccc(S(=O)(=O)Nc3ncccn3)cc2)cc1	i
COc1ccc(S(=O)(=O)N(CC(=O)N2CCCC2)c2ccccc2OC)cc1	i

Fetched by compound from the list above:
SMILES	Mtb H37Rv
Cc1ccc2nc(-c3ccccc3)cc(C(=O)N3CCOCC3)c2c1	i
CC(C)(C)C(=O)N1CCN(c2ccc([N+](=O)[O-])c(N3CCCCC3)c2)CC1	4.2%
COc1ccc(S(=O)(=O)N(CC(=O)N2CCCC2)c2ccccc2OC)cc1	i
C=CCN1C(=S)N(c2ccc(F)cc2)C(=O)C1CC(=O)Nc1ccc(F)cc1 (stereo not drawn)	i
Cn1nnnc1SCCNCc1ccc(-c2ccc(Cl)cc2Cl)o1	21.8%

Going on with the list.
SMILES	Mtb H37Rv
COc1ccc2c(c1)c(=O)oc1c(C)c(OCC(=O)N3CCc4ccccc4C3)ccc12	i
CC(=O)c1cccc(NC(=O)Nc2nn(Cc3c(F)cccc3Cl)cc2Br)c1	i
CCOC(=O)c1sc(NC(=O)Cn2cnc3sc(C(=O)OCC)c(C)c3c2=O)c(C(=O)OCC)c1C	i
O=C(CCSc1nnc2scc(-c3ccccc3)n12)Nc1nsc(-c2ccccc2)n1	1.5%
COc1cc(NC(=S)N2CCN(c3ccc(F)cc3)CC2)cc(OC)c1	i
CC(=O)Nc1ccc(S(=O)(=O)Nc2ccncc2)cc1	i
COCCNCCOc1ccc(Br)cc1Cl	i
CNC(=O)CC1Sc2ccc(C(F)(F)F)cc2NC1=O (stereo not drawn)	i
COc1ccc(NC(=S)Nc2cccc(C(C)=O)c2)cc1OC	i
CC(C)(C)C(=O)NC(=S)Nc1ccccc1C(=O)NC1CCCCC1	i
COc1cc(SC)ccc1C(=O)N1CCN(c2ccccc2OC)CC1	i
Cc1ccc(C2C(C(=O)c3sc(-c4ccccc4)nc3C)=C(O)C(=O)N2CCN(C)C)o1 (stereo not drawn)	i
Cc1cccc(NC(=O)c2c(F)c(F)c(F)c(F)c2F)c1	i
CCCN1CCC(NC(=O)Nc2ccc(F)cc2F)CC1	i
COc1cccc(OC)c1C(=O)Nc1cccc(Br)c1	i
Cc1ccc(OCc2nc(-c3ccc(Br)cc3)no2)cc1C	i
O=C(Nc1cccnc1)c1ccc(CSc2ccc(Cl)cc2)cc1	20.5%
CCOc1ccc(NC(=O)CC2C(=O)N(c3cccc(Cl)c3)C(=O)N2CCc2ccccc2)cc1 (stereo not drawn)	15.5%
N#Cc1ccccc1Cn1c(-c2cncs2)nc2ccccc21	1.3%
C=CCN(CC=C)CCOc1c(C)cc(C)cc1Br	i
COc1ccc(-c2cc(C3CC3)nc3sc4c(N)ncnc4c23)cc1	0.8%
Cc1onc(-c2ccccc2Cl)c1C(=O)Oc1cccc([N+](=O)[O-])c1	i
COc1ccc(C(=O)Nc2cccc(OC(=O)c3cc(S(=O)(=O)N4CCOCC4)ccc3Cl)c2)cc1	i
COc1ccc(NC(=O)C2CCC(=O)N2S(=O)(=O)c2ccc(C)cc2)cc1Cl (stereo not drawn)	i
O=C(COc1ccc(Cl)cc1Cl)Oc1ccc(Br)cc1Cl	i
O=C(Nc1ccc(-c2cn3ccsc3n2)cc1)c1cccc(I)c1	i
Cc1nc(-c2ccc(NC(=O)c3ccccc3C)cc2)cs1	36.5%
CCOC(=O)C1C(=O)OC2(CCOC(C)(C)C2)C1C(=O)OCC (stereo not drawn)	i
O=C(Nc1ccc(I)cc1C(=O)N1CCCC1)c1cccnc1	i
Cc1ccc(/C(N)=N/OC(=O)COc2cc(C)c(Br)c(C)c2)cc1	7.6%
